Methyltransferases: Primary Screen for Target Class Profiling of Small Molecule Inhibitors of Methyltransferases; calls only at 40 µM; actives 3.9% (n = 25,000); purified enzyme, MTase-Glo SAH luminescence; stronger effect = lower value; active = -50% or lower on at least one of six enzymes; inconclusive = the cases between; inactive = as a rule above -30% on all six;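 note: enzymes were COMT GAMT GNMT HNMT NNMT and PNMT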
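Each enzyme was reacted with SAM and its substrate, with compounds tested once at 40 uM; SAH formed was read by MTase-Glo luminescence.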
Calls only; i = inactive; ? = inconclusive; + = active, no number; ! = not active in a repeat. % is set by controls: 0 for no effect and ±100 for the full control effect. Some of the compounds tested; the hit share may differ from the screen's.

No.	mol	Methyltransferases
1	CCOc1cccc(CNC(=O)c2nnn3c2COC(c2ccc(C)cc2)C3)c1 (stereo unspecified)	i
2	C/C=C/C1OC2=C(C(=O)OC2(C)O)C(O)C1O (stereo unspecified)	i
3	CC1(C(=O)NCc2ccccc2)Cn2cnc(C(=O)N3CCc4ccccc43)c2C(=O)N1C1CC1 (stereo unspecified)	i
4	O=C(NCc1ccccc1)c1ccccc1OC1CN(C2CCC2)C1	i
5	CCCS(=O)(=O)N1CCCC1C(=O)Nc1ccccc1-c1ccc(OC)cc1 (stereo unspecified)	i
6	Cc1cccc(N2C(=O)N(Cc3ccc(C(C)(C)C)cc3)c3ccccc3S2(=O)=O)c1	?
7	CCOC(=O)C1CCN(c2nc3c(S(=O)(=O)c4ccccc4)nnn3c3ccccc23)CC1	i
8	CNC(=O)c1ccc(CN2CC3(CCN(C(C)=O)CC3)CC2C(=O)O)o1 (stereo unspecified)	i
9	O=C(NC1CCCCC1)N[C@H]1CO[C@H]2[C@@H]1OC[C@H]2O	i
10	CC1=CC(=O)CC(C)(C)C1(O)CCC(C)O (stereo unspecified)	+
11	CCc1cccc(NC(=O)Cn2c(=O)oc3cc(S(=O)(=O)N4CC(C)CC(C)C4)ccc32)c1 (stereo unspecified)	i
12	COC(=O)C1=C(C)NC(C)=C(C(=O)OC(C)(C)CN(C)CCC(c2ccccc2)c2ccccc2)C1c1cccc([N+](=O)[O-])c1 (stereo unspecified)	i

The list continues.
No.	mol	Methyltransferases
13	O=C(NCCCNC(=O)c1ccc[nH]c1=O)c1cc(-c2ccccc2)on1	i
14	COc1ccccc1CNC(=O)C1(C)Cn2cnc(C(=O)NCc3ccc(OC(C)C)cc3)c2C(=O)N1C1CC1 (stereo unspecified)	i
15	O=c1[nH]c2ccccc2n1C1CCN(S(=O)(=O)c2ccc3c(c2)OCCO3)CC1	i
16	CCCC1c2ccc(C)n2CCN1C(=O)Nc1ccc(C)cc1C (stereo unspecified)	i
17	CN(Cc1ccc(-c2ccccc2)cc1)C(=O)Cc1ccccn1	i
18	CN(Cc1cccn1C)C(=O)C1CC1	i
19	CCOCCCNC(=O)CCc1nnc2n(Cc3ccccc3)c(=O)c3ccccc3n12	i
20	C[C@H]1[C@H](C)CC[C@]2(C(=O)O)CC[C@]3(C)C(=CCC4[C@@]5(C)C[C@@H](O)[C@H](O)C(C)(C)C5CC[C@]43C)[C@H]12 (stereo partly specified)	i
21	COc1ccc(N(C(=O)c2ccc(C)cc2)S(=O)(=O)c2ccc3c(c2)n(C)c(=O)n3C)cc1	i
22	CCN(CC)CCNC(=O)c1ccc(NS(C)(=O)=O)cc1	i
23	Cc1ccc2c(c1)c(-n1cccc1)c1n2CC(C)(C(=O)NC2CCC(C)CC2)N(Cc2ccccc2Cl)C1=O (stereo unspecified)	i
24	COc1ccc(CN(C)C2CCCN(CCc3ccccc3)C2)c(OC)c1OC (stereo unspecified)	i

Exported with each value named: entries from further up.
22. CCN(CC)CCNC(=O)c1ccc(NS(C)(=O)=O)cc1
  Methyltransferases = i
18. CN(Cc1cccn1C)C(=O)C1CC1
  Methyltransferases = i
19. CCOCCCNC(=O)CCc1nnc2n(Cc3ccccc3)c(=O)c3ccccc3n12
  Methyltransferases = i
15. O=c1[nH]c2ccccc2n1C1CCN(S(=O)(=O)c2ccc3c(c2)OCCO3)CC1
  Methyltransferases = i

(list continues)
No.	mol	Methyltransferases
25	CC(=O)Nc1c2n(c3ccccc13)CC(C)(C(=O)NC1CCCCCC1)N(Cc1ccco1)C2=O (stereo unspecified)	i
26	CN(C)c1ccc(-c2noc([C@@H]3CCCN3C3CCOCC3)n2)cn1	i
27	N[C@@H](CS(=O)O)C(=O)O	i
28	O=c1cc(-c2cccnc2)nc(-c2cccc(CN3CCNCC3)c2)[nH]1	i
29	CCCn1c(=O)c2cc(F)ccc2n2c(SCC(=O)NC3CCCCC3)nnc12	i
30	Cc1cnc(-c2ccccc2)n1C1CCN(S(=O)(=O)c2ccc3c(c2)OCCO3)CC1	i
31	COCCCN1C(=O)c2ccc(-c3ccccc3)n2CC1(C)C(=O)NC1CCCCCC1 (stereo unspecified)	i
32	CC1CCN(S(=O)(=O)c2ccc3c(ccn3CC(=O)NCc3cccc(F)c3)c2)CC1	i
33	CC(C)[C@H](C(=O)Nc1ccc(C(=O)NO)cc1)c1ccccc1	+
34	C=C1/C(=C/C=C2\CCC[C@]3(C)[C@@H]([C@H](C)/C=C/[C@@H](C)C(C)C)CC[C@@H]23)C[C@@H](O)C[C@@H]1O	i
35	O=C(c1nccc2ccccc12)N1CCC2(CC1)CC(O)CCO2 (stereo unspecified)	i
36	COC(=O)[C@H](CC1C=NC=N1)NCC12CC3CC(CC(C3)C1)C2 (stereo partly specified)	i

Additional structures follow.
No.	mol	Methyltransferases
37	COc1ccccc1Nc1nc2c(S(=O)(=O)c3ccc(C)cc3)nnn2c2ccccc12	i
38	COCCN1C(=O)CSc2c(c(C)nn2-c2ccccc2)C1C(=O)NCc1ccccc1OC (stereo unspecified)	i
39	CC1CCN(S(=O)(=O)c2ccc3c(ccn3CCC(=O)N3CC(C)CC(C)C3)c2)CC1 (stereo unspecified)	i
40	CC(C)CCn1c(=O)c2ccccc2n2c(=O)n(CC(=O)Nc3ccc4c(c3)OCO4)nc12	i
41	O=C(c1ccc(Cl)cc1)N1CCC(N2CCOC2=O)CC1	i
42	O=c1c2ccccc2n2c(=O)n(Cc3ccccc3Cl)nc2n1CCc1ccccc1	i
43	CC(C)NC(=O)c1ccc2c(=O)n(Cc3ccccc3)c3nn(Cc4cccc(F)c4)c(=O)n3c2c1	i
44	O=C1NC2(Cc3ccccc31)CN([S+](=O)([O-])c1cccs1)C2	i
45	COC[C@H]1CCCN1Cc1nc(C2(O)CCN(C(=O)CC(C)(C)C)CC2)cs1	i
46	O=S(=O)(c1ccc(Br)cc1)c1nnn2c1nc(NCc1ccccc1)c1ccccc12	i
47	OC1(c2csc(CN3CCOCC3)n2)CCN(Cc2ccc(F)cc2)CC1	i
48	C=CC1(C)CC(OC(=O)/C(C)=C\COC(C)=O)C(C(=C)C(=O)O)C(O)C1C(=C)CO (stereo unspecified)	i

(further entries)
No.	mol	Methyltransferases
49	Cn1c(=O)n(C)c2cc(S(=O)(=O)Nc3ccc(N4CCOCC4)c(Cl)c3)ccc21	i
50	O=C(Cn1nc2n(Cc3ccccc3)c(=O)c3ccccc3n2c1=O)Nc1ccc2c(c1)OCCO2	i
51	O=C(c1ccccc1OC1CN(Cc2cccc(C(F)(F)F)c2)C1)N1CCOCC1	i
52	CCCCOC(=O)NS(=O)(=O)c1sc(CC(C)C)cc1-c1ccc(Cn2c(CC)nc3c(C)cc(C)nc32)cc1	i
53	CC(C)OCCCN1C(=O)c2cc3ccccc3n2CC1(C)C(=O)NC1CCCCCC1 (stereo unspecified)	i
54	CS(=O)(=O)N1CCOc2ccc(CCC(=O)NCC3CCCO3)cc2C1 (stereo unspecified)	i
55	CCOc1cc(CNC(=O)c2ncn3c2C(=O)N(CC)C(C)(C(=O)NC2CCCC2)C3)ccc1OC (stereo unspecified)	i
56	CC(C)CCNC(=O)C1c2c(n(C)c3ccccc23)SCC(=O)N1c1ccccc1F (stereo unspecified)	i
57	CCC(C)NC(=O)c1ccc2c(=O)n(CC(C)C)c3nn(CC(=O)Nc4cc(C)cc(C)c4)c(=O)n3c2c1 (stereo unspecified)	i
58	CCOC(=O)c1cc2n(n1)CC(C)(C(=O)NCCC(C)C)N(c1cccc(Cl)c1)C2=O (stereo unspecified)	i
59	CCN1CCN(CCNC(=O)c2cc3n(n2)CC(C)(C(=O)NCc2ccccc2)N(C)C3=O)CC1 (stereo unspecified)	i
60	O=C(/C=C/c1cccc(S(=O)(=O)Nc2ccccc2)c1)NO	?

The listing continues.
No.	mol	Methyltransferases
61	CCCN1C(=O)c2c(C(=O)NCCc3ccccc3)ncn2CC1(C)C(=O)NCc1ccc(C)cc1 (stereo unspecified)	i
62	O=C(CCc1cc2n(n1)CCCNC2)N1CCCC(c2nnc3ccccn23)C1 (stereo unspecified)	i
63	CC(=O)N1CCCN(C(=O)c2ccc3c(c2)NC(C)(CCCCc2ccccc2)CO3)CC1 (stereo unspecified)	i
64	Cc1ccccc1N1CCN(C(=O)c2nnn3c2COC(c2ccc(Cl)cc2)C3)CC1 (stereo unspecified)	i
65	CCCCCCCCCCCCCCSCC(=O)O	i
66	C/C=C1\[C@H](O[C@@H]2O[C@H](CO)[C@@H](O)[C@H](O)[C@H]2O)OC=C(C(=O)O)[C@H]1CC(=O)OCCc1ccc(O)cc1	i
67	Cn1c(=O)c2ccc(C(=O)NC3CCCC3)cc2n2c(=O)n(CC(=O)NC3CCCC3)nc12	i
68	CCOc1ccccc1NC(=O)N1CCCCC1CCn1cc(C(=O)NCC2CC2)nn1 (stereo unspecified)	i
69	CC(C)Cn1c(=O)c2ccccc2n2c(=O)n(CC(=O)NCc3ccccc3)nc12	i
70	COC(=O)c1c(C)cc(OC(=O)c2c(C)cc(OC)cc2OC)cc1O[C@@H]1O[C@H](CO)[C@@H](O)[C@H](O)[C@H]1O	i
71	CC(=O)N1CCc2sc(C(=O)NC3CCN(Cc4ccccc4)CC3)cc2C1	i
72	COCCCNc1nc2c(-c3cccc(F)c3)nnn2c2ccc(Cl)cc12	i

(list continues)
No.	mol	Methyltransferases
73	COCCN1C(=O)CCc2cc(NC(=O)c3ccc(Cl)s3)ccc21	i
74	CCc1ccc(N2C(=O)c3cc(C(=O)OC)nn3CC2(C)C(=O)NC2CCCCC2)cc1 (stereo unspecified)	i
75	COC(=O)c1ncn2c1C(=O)N(c1cccc(C)c1C)C(C)(C(=O)NCc1ccccc1OC)C2 (stereo unspecified)	i
76	CC(C)CCNC(=O)C1(C)Cn2nc(C(=O)NCC(C)c3ccccc3)cc2C(=O)N1C (stereo unspecified)	i
77	COc1cccc(S(=O)(=O)N2CCC([C@H]3[C@@H](OC)C(=O)N3C(C)C)CC2)c1	i
78	Cc1ccc(C(=O)Cn2nc3n(CC(C)C)c(=O)c4ccc(C(=O)NCC(C)C)cc4n3c2=O)c(C)c1	i
79	CCCn1c(=O)c2ccc(C(=O)NCC(C)C)cc2n2c(=O)n(CC(=O)NC(C)C)nc12	i
80	CCOC(=O)c1cc2n(n1)CC(C)(C(=O)NCCC(C)C)N(Cc1ccc(CC)cc1)C2=O (stereo unspecified)	i
81	CCCC1CCC(c2ccc(C(=O)COC(=O)C(Cc3c[nH]c4ccccc34)NC(=O)c3ccc(C(C)(C)C)cc3)cc2)CC1 (stereo unspecified)	i
82	Cc1ccccc1NC(=O)Cn1nc2n(CCC(C)C)c(=O)c3ccc(C(=O)NC(C)C)cc3n2c1=O	i
83	COC(=O)c1cc2n(n1)CC(C)(C(=O)NC1CCCCCC1)N(Cc1ccc(C)cc1)C2=O (stereo unspecified)	i
84	CCN(CC)c1cc(CCC(=O)NCCCN2CCOCC2)ccn1	i

Structural class, the compounds so far with a COOH group.
No.	mol	Methyltransferases
8	CNC(=O)c1ccc(CN2CC3(CCN(C(C)=O)CC3)CC2C(=O)O)o1 (stereo unspecified)	i
20	C[C@H]1[C@H](C)CC[C@]2(C(=O)O)CC[C@]3(C)C(=CCC4[C@@]5(C)C[C@@H](O)[C@H](O)C(C)(C)C5CC[C@]43C)[C@H]12 (stereo partly specified)	i
27	N[C@@H](CS(=O)O)C(=O)O	i
48	C=CC1(C)CC(OC(=O)/C(C)=C\COC(C)=O)C(C(=C)C(=O)O)C(O)C1C(=C)CO (stereo unspecified)	i
65	CCCCCCCCCCCCCCSCC(=O)O	i
66	C/C=C1\[C@H](O[C@@H]2O[C@H](CO)[C@@H](O)[C@H](O)[C@H]2O)OC=C(C(=O)O)[C@H]1CC(=O)OCCc1ccc(O)cc1	i

Next part.
No.	mol	Methyltransferases
85	CS(=O)(=O)N1CCOc2ccc(CCC(=O)N3CCC(C(N)=O)CC3)cc2C1	i
86	CNC(=O)N1C[C@@H](CN(C)C)[C@H](NC(=O)c2ccsc2)C1	i
87	COC(=O)c1cccc(NC(=O)N2Cc3c(sc4c3CCCC4)-n3cccc3C2c2cccc(F)c2)c1 (stereo unspecified)	i
88	COc1cc2nc(N3CCCCC3)nc(NC3CCN(C)CC3)c2cc1OC	+!
89	COc1cc(/C=C/C(=O)O[C@H]2[C@H](O)[C@@H](CO)O[C@@]2(CO)O[C@H]2O[C@H](CO)[C@@H](O)[C@H](O)[C@H]2O)cc(OC)c1O	i
90	CC1=CC(=O)CC(C)(C)C1/C=C/C(C)OC1OC(COC2OCC(O)C(O)C2O)C(O)C(O)C1O (stereo unspecified)	i
91	COc1ccc(N2C(=O)c3cc4sccc4n3CC2(C)C(=O)NC2CCC(C)CC2)cc1Cl (stereo unspecified)	i
92	Cc1ccc(NC(=O)c2ccc(CN3CCNCC3)cc2)cc1Nc1nccc(-c2cccnc2)n1	i
93	COC(=O)c1cc2n(n1)CC(C)(C(=O)NC1CCCCC1)N(c1ccc(OC)cc1)C2=O (stereo unspecified)	i
94	O=c1[nH]ccc2c(O)cccc12	i
95	COC(=O)c1ccc([C@@H]2Nc3c(Cl)cccc3[C@@H]3C=CC[C@@H]32)cc1	i
96	O=S(=O)(c1ccccc1)N1CC(Oc2ccc(-c3noc(C4CC4)n3)cc2)C1	i

The listing continues.
No.	mol	Methyltransferases
97	Cc1ccc(Cn2c(=O)c3ccc(C(=O)NC4CCCC4)cc3n3c(=O)n(C)nc23)cc1	i
98	O=c1c2c(CO)c(-c3ccccc3)nn2ccn1Cc1cc(=O)n2ccccc2n1	i
99	Cn1nc(-c2cccc(F)c2)c(N2CCCCC2)c1NC(=O)Nc1ccccc1	i
100	Cc1ccc(NC(=O)Cn2nc3n(Cc4ccc(F)cc4)c(=O)c4ccccc4n3c2=O)c(Cl)c1	i
101	O=C(c1cccs1)N1CCC2(CC1)CN(C1CCC1)CC2CO (stereo unspecified)	i
102	O=C1N(c2ccccc2)c2ccccc2C12CCN([S+](=O)([O-])c1cccc(C(F)(F)F)c1)C2 (stereo unspecified)	i
103	Cc1nsc(NC(=O)N2CCC(CO)CC2)n1	i
104	C=C1[C@H]2[C@H](O[C@@H]3O[C@H](COC(=O)/C=C/c4cc(OC)c(O)c(OC)c4)[C@@H](O)[C@H](O)[C@H]3O)OC=C(C(=O)O)[C@H]2C[C@@H]1O	+

From PubChem BioAssay
